Screening data (PubChem BioAssay)
CSC inhib – cancer stem cell viability inhibitors, primary screen, luminescence; inhibition, % at 7.5 µM; cancer stem cell-like cells viability; AID 2717, 2010; hit rate 1.1% among 300,000;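 active means mean at 75% or more and at least half the replicates too; tested in HMLE shEcad cells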;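 further: 0% = median of negative and 100% = median of positive control wells; the first replicate is given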
PABP FP inh – PABP poly(A) RNA binding inhibitors, primary screen, biochemical, fluorescence polarization, uHTS; AID 2014, 2009; inhibition, % at 35 µM; hit rate 1% among 290,000;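 active means 50% or more with normal probe brightness, or confirmed in later tests; about a fifth of its hits are not listed in these tables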;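 further: calls also rest on retests at 20 µM and on dose response follow-up; controls were probe without protein and protein plus probe with vehicle; some compounds called inactive have numbers as strong as hits; many hits fall short of the cut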
Target sequence (P11940 whole entry, looked up): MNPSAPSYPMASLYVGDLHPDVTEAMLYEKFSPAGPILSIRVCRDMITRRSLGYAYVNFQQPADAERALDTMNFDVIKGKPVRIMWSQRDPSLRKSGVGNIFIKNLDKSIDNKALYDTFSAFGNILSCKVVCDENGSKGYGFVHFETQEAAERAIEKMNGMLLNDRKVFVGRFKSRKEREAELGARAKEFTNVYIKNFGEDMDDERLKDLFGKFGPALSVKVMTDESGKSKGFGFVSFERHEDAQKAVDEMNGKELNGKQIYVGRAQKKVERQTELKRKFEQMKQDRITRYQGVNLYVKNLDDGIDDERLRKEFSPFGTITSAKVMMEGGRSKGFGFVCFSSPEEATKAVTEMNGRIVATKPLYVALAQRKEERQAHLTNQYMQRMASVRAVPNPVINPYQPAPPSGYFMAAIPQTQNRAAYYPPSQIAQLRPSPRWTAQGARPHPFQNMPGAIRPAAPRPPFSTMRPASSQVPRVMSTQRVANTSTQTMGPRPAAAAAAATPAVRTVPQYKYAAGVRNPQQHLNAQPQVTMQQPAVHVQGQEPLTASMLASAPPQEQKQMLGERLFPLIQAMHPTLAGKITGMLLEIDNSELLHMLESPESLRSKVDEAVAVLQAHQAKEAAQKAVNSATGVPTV
MT1-MMP act inh – blockers of MT1-MMP proenzyme processing, primary screen, HT1080 RFP-PRO-GFP cells, GFP/RFP fluorescence. Matrix metalloproteinase-14 (Homo sapiens), P50281. GFP/RFP ratio fluorescence, overnight; percent of plate control window, DMSO zero. GFP/RFP ratio change, % at 20 µM. hit rate 0.061% among 360,000;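 active means GFP/RFP ratio change of at least 30% with cell ATP level not reduced by more than half and red fluorescence within 50% of control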; further: strong numbers were not always called active
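Material: RFP-PRO-GFP reporter HT1080 cells. Dosing: single-point 20 µM compound, 1% DMSO. Controls: DMSO and RFP-L50D-GFP cell wells. Timing: cells overnight before dosing, compound overnight, 37 °C, 5% CO2. Measure: GFP/RFP fluorescence ratio.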
HIV Env fusion – inhibitors of HIV-1 Env-driven cell-cell fusion, primary screen, HeLa-JRFL effector, CEM21 target cells, luciferase | AID 651610, 2012 | hit rate 1.1% among 360,000 | inhibition, % at 12.3 µM;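 active means mean replicate inhibition score of at least 50 and every replicate individually at or above 50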;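 further: 0% = plate neutral controls and 100% = maraviroc near 300 nM; one replicate is shown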
Rce1 inh – yeast Rce1p protease inhibitors, primary screen, biochemical, fluorescence, cell-free homogeneous. CAAX prenyl protease 2 (Saccharomyces cerevisiae (strain ATCC 204508 / S288c)), Q03530. yeast membranes, quenched prenylated peptide cleavage fluorescence. calls only. hit rate 0.27% among 290,000. AID 2563, 2010;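 active means fall in fluorescence gain of 50% or more versus controls, with final raw signal at or below 3038400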;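 further: plate controls were neutral control wells for no effect and wells lacking membranes for full effect; tested at 10 µM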
Yeast UUG start – modulators of yeast start codon fidelity, primary screen, whole organism, S. cerevisiae, single point, plate reader; S. cerevisiae UUG-firefly luciferase reporter, luminescence/redox ratio; hit rate 0.13% among 350,000; activity score, % at 18.7 µM; AID 602363, 2012;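 active means replicate mean at a twofold rise or more, about +100% in these data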;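 further: firefly luciferase made from a UUG start codon reports start codon fidelity; reporter light over untreated wells divided by growth signal over untreated wells; some hits fall short of that in this replicate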
eIF4H FP inh – human eIF4H binding inhibitors, primary screen, translation initiation inhibitor project, biochemical, uHTS, fluorescence polarization | inhibition, % at 35 µM | hit rate 0.94% among 290,000 | Eukaryotic translation initiation factor 4H (Homo sapiens), Q15056 | eIF4H fluorescence polarization binding assay;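 active means 50% or more with normal probe brightness, or confirmed in later tests; about a fifth of its hits are not listed in these tables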;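 further: calls also rest on retests at 20 µM and on dose response follow-up; 0% = protein and probe with vehicle and 100% = probe without protein; strong numbers were not always called active; many hits fall short of the cut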
MT1-MMP act inh RFP – second read-out of MT1-MMP act inh, no call of its own (marks repeat the call); RFP signal change, %; measured here: RFP expression control read;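 0 = vehicle wells; hits needed this value within 50% of zero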
* hit, by the source's call; i = inactive; · = not tested or not shown; & = joins results of further samples. Compounds as they come; 2.9% or so of the library scored in one or more.

SMILES	CSC inhib	PABP FP inh	MT1-MMP act inh	MT1-MMP act inh RFP	HIV Env fusion	Rce1 inh	Yeast UUG start	eIF4H FP inh
CCc1nc(C#N)c(N2CCOCC2)o1	1	-4	-2	2	-12	i	-16	10
NC(=O)CSc1oc(-c2ccco2)nc1S(=O)(=O)c1ccc(Br)cc1	-9	2	-2	2	·	i	-5	1
CCOC(=O)Cc1nnc(-c2ccccc2)o1	1	4	1	0	-8	i	-7	2
CCOC(=O)c1c(C)[nH]c(C2=NNC(=NC3CC3)SC2)c1C	-8	-14	-1	1	·	·	·	-4
Cc1cccnc1NC(=O)c1ccco1	·	·	-1	3	-22	·	-18	·
CSc1ccccc1CNC(=O)C1(C)CCCN1CC(C)C (stereo unspecified)	·	·	-2	0	0	·	-13	·
CCOc1ccccc1NC1=CC(=O)CC(c2ccccc2)C1 (stereo unspecified)	28	0	-2	-6	·	i	-8	-1
O=C(NCCCN1CCC(Cc2ccccc2)CC1)C1CCN(S(=O)(=O)N2CCOCC2)CC1	·	-1	2	7	·	·	-4	-4
Cc1ccc(N(CC(=O)NC2CCCC2)C(=O)CCC(=O)Nc2nccs2)c(C)c1	-8	3	-2	-3	7	i	-14	-5
CCCc1nn(C(=O)c2ccccc2)c2c1C(=O)CC(C)(C)C2	-1	-11	12	2	-24	i	-5	-1
CN(c1ccccc1C(=O)O)S(=O)(=O)c1ccc2c3c(cccc13)C(=O)N2	-23	-5	2	3	·	·	·	37
COc1cc(C(=O)NCCC(=O)NCCCN2CCCCC2)cc(OC)c1OC	·	-7	2	1	-42	i	-1	4
COCc1nc2ccccc2n1CCOc1ccccc1OC	·	-2	1	-4	-45	i	-2	-4
COc1ccc(NC(=O)N2CCc3ccccc32)cc1	6	-1	-12	-6	·	i	-46	-6
COC(=O)c1nn(-c2ccc(OC)cc2)ccc1=O	5	-11	2	1	-7	i	·	-4

Reprinted at random: three records from the list, in no set order.
SMILES	CSC inhib	PABP FP inh	MT1-MMP act inh	MT1-MMP act inh RFP	HIV Env fusion	Rce1 inh	Yeast UUG start	eIF4H FP inh
COc1cc(C(=O)NCCC(=O)NCCCN2CCCCC2)cc(OC)c1OC	·	-7	2	1	-42	i	-1	4
CCOC(=O)Cc1nnc(-c2ccccc2)o1	1	4	1	0	-8	i	-7	2
CCOC(=O)c1c(C)[nH]c(C2=NNC(=NC3CC3)SC2)c1C	-8	-14	-1	1	·	·	·	-4

Later entries.
SMILES	CSC inhib	PABP FP inh	MT1-MMP act inh	MT1-MMP act inh RFP	HIV Env fusion	Rce1 inh	Yeast UUG start	eIF4H FP inh
CN(C(=O)CSc1nnc(-c2n[nH]c3ccccc23)o1)c1ccccc1	5	-6	-2	-3	-7	i	·	-4
CC(C)NS(=O)(=O)c1ccc(NC(=S)NC(=O)c2cccc([N+](=O)[O-])c2)cc1	6	12	5	0	·	i	-7	-1
N#Cc1c(N)c(C(=O)c2ccccc2)n2ccccc12	-2	·	1	-1	5	i	·	·
CCCCc1ncc(CN2CCN(Cc3ccc(C)cc3)C(CCO)C2)[nH]1 (stereo unspecified)	-15	0	6	-3	3	i	-24	8
Cc1ccc(NC(=O)NC(=O)CN2CCCC2c2ccc3c(c2)OCCO3)cc1C (stereo unspecified)	·	·	3	-8	-4	·	-6	·
CCCn1cccc(C(=O)Nc2ccc(OC)cc2)c1=O	-2	5	2	-1	-33	i	-7	-1
O=C(Cc1ccc([N+](=O)[O-])cc1)Nc1ccc(Cl)cc1	-5	6	3	-3	8	i	·	-10
O=S(=O)(c1cccc(Cl)c1Cl)N1CCN(C(=S)NCCCN2CCOCC2)CC1	28	10	-2	-10	-3	i	-17	17
O=C1c2ccncc2C(=O)N1CNc1ccc(Cl)cc1	36	6	1	0	12	i	·	9
CCC(=O)N1CCN(c2ccc(NC(=S)NC(=O)C(C)C)cc2)CC1	11	2	-1	6	-32	i	·	-2
CCn1c(SCC(=O)N(C)CCC#N)nc2cc(S(=O)(=O)N3CCOCC3)ccc21	-10	·	-15	-5	-11	i	·	·
O=C(c1ccc(F)cc1)N1CCC(N2CCOCC2)CC1	·	3	5	3	-47	i	-13	7
NS(=O)(=O)c1ccc(CNC(=O)CNC(=O)c2ccc(Br)o2)cc1	-12	-9	0	4	12	i	-18	-10
CCCNC(=O)c1cc2ccccc2c(=O)o1	1	-13	4	6	-2	i	-18	-4
CC1Cc2ccccc2N1CC(=O)NC(=O)NC(C)(C)C (stereo unspecified)	-3	6	6	9	5	i	-14	-4
CNC(=S)Nc1ccc(OC(F)(F)F)cc1	-12	-7	1	3	-6	i	-4	1
O=C1CCc2cc(S(=O)(=O)N3CCC(C(=O)NCCC4=CCCCC4)CC3)ccc2N1	·	4	-1	0	-45	·	-11	0
CC(=O)N1CCC2(CC1)C(C#N)=C(N)Oc1n[nH]c(C)c12	-13	5	4	2	-32	i	-28	-8
O=c1c2ccccc2on1-c1ccccc1	·	·	-2	3	-21	·	-21	·
COc1ccc(C(C(=O)NC(C)(C)C)N(C(=O)CCC(=O)Nc2cc(C)on2)c2ccc3c(c2)OCCO3)cc1 (stereo unspecified)	·	-4	0	1	-1	i	-9	-13
CCOc1ccccc1C1c2cc3c(cc2OC(C)(N2CCCC2)C1C)OCO3 (stereo unspecified)	4	·	0	0	-8	i	·	·
Nc1nc(NC(=O)c2ccccc2)nn1-c1ccccc1	0	9	3	7	4	i	-32	3
C#CCOCCOCCOCCNc1nc(N2CCN(C(=O)[C@H](CCCCN)n3cc([C@@H](N)CO)nn3)CC2)nc(N2CCN(C(=O)[C@H](Cc3cc4ccccc4[nH]3)n3cc([C@@H](N)CC(C)C)nn3)CC2)n1	0	37	·	·	·	i	·	34
CCN1C(=O)C(=O)N(CC(=O)N2CCC(C)Sc3ccccc32)C1=O (stereo unspecified)	-21	·	0	3	9	·	-19	·
COc1ccccc1NS(=O)(=O)c1cccc(C(=O)N2CCN(C(=O)c3ccco3)CC2)c1	-6	·	-3	3	·	·	3	·
COCC(C)NCc1ccc(OC)c(Br)c1 (stereo unspecified)	-2	12	1	4	-2	i	·	10
CCc1nnc(NC(=O)c2c(C)nn(-c3ccccc3)c2Cl)s1	9	3	7	4	-88	i	·	-3
CC(=O)Nc1ccc2c(c1)CCc1ccccc1-2	-8	4	0	-3	-36	i	-3	0
CC(C)C(NC(=O)OCc1ccccc1)C(=O)OCC(=O)NC1CC1 (stereo unspecified)	8	-15	0	3	-34	·	1	-13
O=C(NCc1ccc(OC(F)(F)F)cc1)C1CCC(=O)N(C2CC2)C1 (stereo unspecified)	·	-3	5	-6	20	i	-16	0
CC(C)(C)NC(=O)NC(=O)CSc1ncc(C(F)(F)F)cc1Cl	-10	-2	0	-4	·	i	·	-13
Cn1c(=O)c2c(nc(CN3CCN(C(=O)c4ccco4)CC3)n2CCCc2ccccc2)n(C)c1=O	-15	0	0	3	0	i	4	-6
CSc1nnnn1-c1ccc(Cl)cc1	-16	11	0	2	-22	i	·	8
CC1(CCc2ccccc2)NC(=O)N(Cc2nnc(-c3ccccc3Br)o2)C1=O (stereo unspecified)	-12	0	1	-6	·	i	0	-6
COC(=O)c1ccc(C)c(NS(=O)(=O)c2ccc(OC)cc2)c1	56	6	22	4	·	i	-8	1
COc1ccc(C2=NOC(C(=O)Nc3c(C)n(C)n(-c4ccccc4)c3=O)C2)cc1OC (stereo unspecified)	-10	7	-2	-2	5	i	-14	-4
CC(=O)Nc1ccc(N/C=C/C(=O)c2ccco2)cc1	2	3	-5	8	·	i	4	-1
CCC(C(=O)Oc1c(C(C)C)cccc1C(C)C)c1ccccc1 (stereo unspecified)	17	·	-2	0	-16	·	-11	·
CC1(C)CC(=O)C=C(c2ccccc2-c2ccc3cc[nH]c3c2)C1=O	·	·	0	5	13	·	-1	·
Cc1ccc(C(=O)NCc2ccncc2)cc1S(=O)(=O)N1CCCCC1	-19	0	2	-5	19	i	-12	0
NC(=O)CNC(=O)[C@@H]1CC2(CC(c3ccc(Cl)cc3)=NO2)CN1C(=O)c1ccccc1 (stereo partly specified)	4	1	-1	3	-1	i	4	-8
COC(=O)C1CCN(C(=O)COC(=O)c2cc(-c3cccs3)nn2-c2ccccc2)CC1	9	·	2	0	-21	i	6	·
O=C(CSc1nnc(CNC(=O)c2c(F)cccc2F)o1)NCc1ccc2c(c1)OCO2	·	·	0	4	10	·	-40	·
Cc1ccc(CC(=O)NC2CCSC2=O)cc1 (stereo unspecified)	2	3	1	4	14	·	-8	-2
COc1cc(CNCCc2ccccc2)ccc1OCC(=O)NC(C)(C)C	-14	0	0	1	·	i	-14	-8
O=C(O)CCCCCn1c(SCC(=O)N2CCCC2)nc2ccsc2c1=O	-11	-4	4	-3	19	i	4	-2
Cc1ccc(NC(=O)C2(C)CCN2C(=O)Cc2ccccc2)cc1C (stereo unspecified)	·	·	-1	1	-3	·	-25	·
COc1ccc(NC(C)=O)c(C)c1	-12	-3	0	0	2	i	·	-4
COc1ccc(-c2cn3c(C)c(C(=O)Nc4cccc(C)n4)sc3n2)cc1	-4	-6	-7	1	·	·	-54	-3
CCOC(=O)C1=CN2CCC[C@H]2CC1=O	·	·	1	1	-8	·	-16	·
CCN(CC)S(=O)(=O)c1ccc(NC(=O)COC(=O)CNS(=O)(=O)/C=C/c2ccccc2)cc1	-11	-3	3	4	-4	i	·	1
COc1ccc(/C=C/C(=O)NCc2cccnc2)cc1	-1	-8	0	4	5	i	·	2
COc1cc(C(=O)Nc2ccccc2C(=O)Nc2ccccn2)cc(OC)c1OC	54	7	5	-10	-58	i	-4	-1
CCN(CC(=O)Nc1c(F)cccc1F)C(=O)c1ccc2c(c1)NC(=O)C(C)S2 (stereo unspecified)	-4	·	5	1	·	i	-15	·
CCCn1c(=O)c(C(=O)Nc2ccccc2)c(O)c2ccccc21	24	-2	4	4	·	i	-18	-7
COC(=O)c1nnc(-c2ccccc2)nc1OC	-4	-2	-3	-2	·	i	·	-1
C[C@H](CO)N1C[C@H](C)[C@H](CN(C)C(=O)Nc2ccc(C(F)(F)F)cc2)OCc2cnnn2CCCC1=O	·	·	0	5	2	·	-2&14	·
Cc1cccc(NCc2nc(SCC(N)=O)n[nH]2)c1	-10	7	-6	-4	-57	i	-26	-3
C=CCNC(=O)c1c(Cl)nc(C)c([N+](=O)[O-])c1C	0	-6	3	6	-10	i	-25	-7
CCCc1c(C(=O)N/N=C/c2c(OC)ccc3ccccc23)nnn1-c1nonc1N	10	4	3	3	-3	i	-25	-7

Next part.
SMILES	CSC inhib	PABP FP inh	MT1-MMP act inh	MT1-MMP act inh RFP	HIV Env fusion	Rce1 inh	Yeast UUG start	eIF4H FP inh
COCc1ccc(C(=O)N2CCCC(N3CCN(c4ccc(F)cc4)CC3)C2)o1 (stereo unspecified)	-4	-12	0	-3	-17	·	-15	4
Cc1[nH]c2ccccc2c1C(=O)C(=O)NCCc1ccc(S(N)(=O)=O)cc1	15	3	0	-3	12	i	-24	2
Cc1ccc(NC(=O)CSCc2cc(=O)n3nc(C4CC4)sc3n2)cc1	-2	15	0	4	-9	i	1	-2
Cc1ccc(S(=O)(=O)c2c(N)n(CCN3CCOCC3)c3nc4ccccc4nc23)cc1C	-1	-1	-2	-2	·	i	0	-6
CCOC(=O)C1CCN(C(=O)c2cc3c(=O)n4cccc(C)c4nc3s2)CC1	10	12	0	4	-1	i	-1	-7
Cc1[nH]c2ccccc2c1CCNC(=O)c1c(N)no[n+]1[O-]	-13	-2	-3	0	-2	i	·	5
